# Assay outcomes deposited in PubChem by several laboratories.
# Vif A3G = HIV-1 Vif–A3G interaction blockers – biochemical, TR-FRET, GST-Vif 1-94, biotin-A3G peptide, dose response retest, primary screen (AID 1117319). actives 0.57% (n = 260,000). TR-FRET GST-Vif / biotin-A3G peptide binding; higher % means a stronger effect; test concentration not given here; strong numbers were not always called active. inhibition, %, or IC50 in µM where a hit was titrated;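 active = above the screen mean plus three standard deviations and confirmed in dose response; inconclusive = results disagree or hit not tested in dose response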;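 note: Vif residues 1-94 fused to GST binding biotinylated APOBEC3G peptide 110-148; 0% = full assay without inhibitor and 100% = GST in place of GST-Vif; retest series ran down from 100 µM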
# T cruzi repl = blocks replication of Trypanosoma cruzi | T. cruzi beta-gal in NIH3T3, luminescence, 90 h | inhibition, % (no concentration beside the values) | actives 1.4% (n = 300,000) | AID 1885;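 active = mean inhibition across valid replicates above about 55%, limit read from the data; inconclusive = mean below that limit but half or more replicates reach it; inactive = mean below it, under half of replicates reach it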;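 note: signal also drops with host cell toxicity which is not excluded here; 0% = plate median of DMSO wells and 100% = zero luminescence signal; higher percent means less beta-gal luminescence so fewer parasites; stock transfer was 50 nL into about 50 µL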
# AF4-AF9 inh = blocks AF4 peptide binding to human AF9; AlphaScreen, biotin-AF4 peptide binding to FLAG-AF9; inhibition, % at 10 µM; AID 651704; actives 0.47% (n = 350,000);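 active = every replicate reaching a set inhibition limit, whatever the replicate mean, cut at about 25% in these data; inconclusive = mean inhibition reaches that limit but some replicates miss it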;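 note: 0% = plate neutral control median and 100% = total signal loss; the record names both 10 and 1 µM as test concentration; the first replicate is given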
# Bfl-1 A1 inh = inhibitors of the anti-apoptotic protein A1, read as caspase activation | MEF A1-2A-BIM cells, Caspase-Glo 3/7 luminescence, 3 h; percent of clofoctol response, vehicle zero | actives 0.066% (n = 330,000) | caspase activation, % (concentration not given with the values);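 active = over half of replicate activation scores above 10%, or exactly half above 10 with the replicate mean above 10; inconclusive = replicate mean below 10 yet half the replicates above 10; inactive = over half of replicates below 10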;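 note: wells of about 30 µL received 50 nL stock; many hits fall short of the cut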
# Calb FLC = affects C. albicans growth with fluconazole | C. albicans CaCi-2 (fluconazole-resistant clinical isolate) + fluconazole, Alamar Blue growth, 48 h | growth inhibition, % (no concentration beside the values) | actives 0.57% (n = 300,000) | AID 1979;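 active = most replicates above 75%; inconclusive = exactly half above 75%; inactive = most below 75%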;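 note: all wells also contain fluconazole at 8 µg/ml as a sub-toxic cotreatment; 0% = median of DMSO wells and 100% = median of geldanamycin control wells; wells of about 8 µL received 7.5 nL stock; the first replicate is given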
# Beta apoptosis = blocks beta cell apoptosis; INS-1E cytokine-induced death, ATP luminescence, 48 h; percent of positive-control rescue, neutral wells zero; protection from apoptosis, % (concentration not given with the values); actives 0.8% (n = 300,000);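 active = all replicates at 75% or more, or half of them and the mean; inconclusive = half reach 75% but not the mean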;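 note: 0% = cytokine-treated negative control wells and 100% = positive control rescue; higher means more ATP so stronger rescue from cytokine killing; wells of about 40 µL received 100 nL stock; the first replicate is given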
# RanGTP-Impb inh = inhibitors of RanGTP-importin-beta interaction, primary screen, biochemical, FRET, CFP-Ran, YFP-importin-beta, homogeneous | cell-free CFP-Ran/YFP-importin-beta FRET ratio | inhibition, % (test concentration not listed) | actives 1.1% (n = 300,000) | AID 2216;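 active = most replicates above 15%; inconclusive = exactly half above 15%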;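 note: 0% = DMSO wells and 100% = Ran loaded with GDP instead of GTP; wells of about 40 µL received 100 nL stock; the first replicate is given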
# LANA-H2A inh = blocks KSHV LANA binding to histone H2A/H2B; Q9QR71; actives 0.6% (n = 320,000); cell-free LANA-H2A/H2B peptide, fluorescence polarization; inhibition, % (concentration not given with the values); in the data active = inhibition mostly above about 10%, no sharp cut-off; inactive = mostly below about 6.7%;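 note: stock transfer was 7.5 nL into about 10 µL; 0% = median of vehicle wells and 100% = median of positive control wells; one replicate is shown; the record names a cut of 25% in any replicate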
# Target sequence (Q9QR71 whole entry, looked up): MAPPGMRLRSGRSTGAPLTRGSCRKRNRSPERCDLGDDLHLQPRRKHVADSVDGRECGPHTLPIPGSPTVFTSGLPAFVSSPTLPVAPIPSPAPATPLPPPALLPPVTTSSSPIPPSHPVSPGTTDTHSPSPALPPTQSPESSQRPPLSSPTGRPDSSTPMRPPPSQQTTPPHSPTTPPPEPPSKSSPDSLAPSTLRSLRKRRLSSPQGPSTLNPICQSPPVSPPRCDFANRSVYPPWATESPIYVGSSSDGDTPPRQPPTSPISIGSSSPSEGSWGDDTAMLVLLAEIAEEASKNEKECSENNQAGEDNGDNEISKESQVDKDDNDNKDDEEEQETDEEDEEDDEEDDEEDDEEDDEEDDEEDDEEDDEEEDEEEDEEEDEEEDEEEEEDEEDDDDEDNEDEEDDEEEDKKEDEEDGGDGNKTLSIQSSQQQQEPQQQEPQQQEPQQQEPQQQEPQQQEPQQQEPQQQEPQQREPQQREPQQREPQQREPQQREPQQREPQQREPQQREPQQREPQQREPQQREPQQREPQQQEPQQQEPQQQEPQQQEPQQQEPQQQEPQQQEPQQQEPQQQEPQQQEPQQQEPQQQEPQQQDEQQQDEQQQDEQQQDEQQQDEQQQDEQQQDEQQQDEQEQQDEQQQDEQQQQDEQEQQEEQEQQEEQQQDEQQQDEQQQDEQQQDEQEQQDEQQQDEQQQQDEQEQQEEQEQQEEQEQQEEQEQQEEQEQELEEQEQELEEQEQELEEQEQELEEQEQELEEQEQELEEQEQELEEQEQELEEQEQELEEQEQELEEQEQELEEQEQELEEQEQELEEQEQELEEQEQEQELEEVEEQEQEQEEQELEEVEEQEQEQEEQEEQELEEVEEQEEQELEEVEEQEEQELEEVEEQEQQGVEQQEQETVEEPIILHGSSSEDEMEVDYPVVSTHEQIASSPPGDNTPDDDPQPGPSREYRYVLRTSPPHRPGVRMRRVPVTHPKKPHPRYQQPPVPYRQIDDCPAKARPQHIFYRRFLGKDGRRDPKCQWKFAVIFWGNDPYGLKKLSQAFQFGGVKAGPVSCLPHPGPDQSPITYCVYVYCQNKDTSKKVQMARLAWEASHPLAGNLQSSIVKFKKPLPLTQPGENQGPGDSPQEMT
# * marks the source's active call; other numbers are inactive results; i = inactive; ? = inconclusive; · = not tested or not shown.
compound	Vif A3G	Calb FLC	LANA-H2A inh	Beta apoptosis	Bfl-1 A1 inh	T cruzi repl	AF4-AF9 inh	RanGTP-Impb inh
O=[N+]([O-])c1cccc(-c2ccc(CN3CCCCC3)o2)c1	·	-12	-3.8	-4	-0.6	10	7.1	4.0
O=S(=O)(NCCc1csc(-c2cccnc2)n1)c1cc(F)ccc1F	·	-2	-1.2	-3	0.6	1	-0.7	7.9
CCOCC(=O)N1CCC(Cc2ccccc2)CC1	·	-16	-10	·	1.1	7	2.2	-2.4
O=c1[nH]ncc2c3ccccc3n(Cc3cccc(Cl)c3)c12	-1%	-27	3.1	-5	-0.6	17	-1.7	-1.9
O=C1c2cccc3c(O)ccc(c23)C(=O)N1Cc1ccco1	23%	64	·	·	·	-9	1.5	i
CN(CCC#N)C(=O)COC(=O)/C=C/c1cccs1	5%	23	3.5	-6	3.2	1	-2.7	3.6
O=C(O)c1cccc(Nc2ncnc3ccccc23)c1	13%	-2	-0.5	-2	-4.0	-1	0.3	-1.3
CCC(C(=O)Nc1cccnc1)c1ccccc1 (stereo not given)	·	-8	-2.9	-5	-0.4	-6	-6.2	4.5
COc1ccc(C2C(C(=O)c3ccc(C)o3)=C(O)C(=O)N2Cc2cccnc2)cc1 (stereo not given)	-2%	-2	2.3	-1	1.4	-12	0.4	1.3
CC1CCCC(NC(=O)CSc2nnc(-c3cccnc3)n2N)C1C (stereo not given)	-5%	·	-0.7	-5	0.0	·	1.0	·
C/C(=N\N=C\c1cccc(F)c1)c1nnn(-c2nonc2N)c1C	-14%	-20	-4.8	0	-0.1	-8	3.5	-1.0
Cc1cnc(C(=O)OCC(=O)Nc2c(Cl)cc(Cl)cc2Cl)cn1	-13%	·	1.5	5	-1.1	·	-0.9	·
CC1CCCN(S(=O)(=O)c2cccc(-c3cn4cccnc4n3)c2)C1 (stereo not given)	-9%	0	0.0	3	0.8	10	·	2.8
OCCN1CN=C(Nc2nc3ccccc3s2)NC1	1%	13	-4.9	·	-0.4	0	·	2.6
Cc1ccc(/C=C/C(=O)N2CCN(S(=O)(=O)c3ccc(C)c(C)c3)CC2)o1	·	-1	-5.1	-7	0.5	2	·	-1.9
COC(=O)C1CCN(C(=O)COC(=O)c2oc3ccc(OC)cc3c2C)CC1	-12%	2	-5.9	·	0.6	-16	-2.3	6.0
O=C(Nc1ccc(C(F)(F)F)cc1)c1ccccc1Br	·	-6	1.9	8	-0.4	1	-8.2	7.8
CCN(C(=O)COC(=O)c1ccc(SC)cc1OC)C1CCS(=O)(=O)C1 (stereo not given)	·	·	3.1	1	1.2	·	-2.3	·
Cc1cnc(C(=O)OCC(=O)N(CC(C)C)C2CCS(=O)(=O)C2)cn1 (stereo not given)	·	·	-2.3	-2	-0.2	·	-0.2	·
Cc1ccc(S(=O)(=O)N2CCN(C(=O)COC(=O)/C=C/c3ccccc3)CC2)c(C)c1	0%	·	·	1	-0.3	·	4.2	·
COc1ccc([C@@H]2CC=C(C(=O)O)[C@H](c3cccc(Cl)c3)N2S(=O)(=O)c2ccccc2C)cc1	·	·	-2.6	-2	-0.7	·	-7.3	·
Cc1cccc(C)c1NC(=O)C(C)Sc1n[nH]c(-c2ccncc2)n1 (stereo not given)	·	-7	1.4	1	-0.4	-16	1.0	0.7
COc1ccc(NC(=O)/C=C2\SC(=O)NC2=O)cc1	2%	-4	-2.2	-4	0.1	-13	2.0	0.0
CC(C)CNC(=S)Nc1ccccc1F	-12%	1	-1.2	3	1.0	-16	-13	4.9
Cc1cccc(C)c1NC(=O)CNC(=O)c1ccc2nc[nH]c2c1	12%	1	-5.6	0	0.2	-5	-12	-5.0
COc1ccc(NS(=O)(=O)c2cc(NC(=O)C3CC3)ccc2N2CCCCC2)cc1	?	25	-1.3	7	-0.5	39	2.7	?
COc1ccc(CCNc2c(C=O)c(=O)[nH]c3ccccc23)cc1OC	·	2	1.8	2	0.0	-7	4.1	3.9
COc1ccc([C@@H](OC)[C@@]2(Cc3ccc(O)cc3)N=C(N)N(C)C2=O)cc1	·	·	-1.5	-3	-0.5	·	4.4	·
CON(C)c1nc(OCCNC(=O)COc2ccc(Cl)cc2C)nc(N(C)C)n1	-6%	12	2.2	3	2.0	4	·	0.5
Cc1ccc(-c2noc(C3CCCN(C(=O)c4c(F)cccc4F)C3)n2)cc1 (stereo not given)	2%	-2	-2.4	3	0.1	-10	·	3.5
CCOC(=O)C1CCCN(C(=O)CCc2nnc(-c3ccc(C(C)=O)s3)o2)C1 (stereo not given)	·	-10	-0.4	3	-3.3	-8	1.3	-2.6
CCOC(=O)C(=O)NCC(c1cccs1)S(=O)(=O)c1ccc(Cl)cc1 (stereo not given)	6%	7	-1.8	-2	-0.3	-15	-2.1	0.9
CC(Oc1cccc([N+](=O)[O-])c1)C(=O)NCCC1=CCCCC1 (stereo not given)	5%	·	3.4	0	0.6	·	0.7	·
COc1nccnc1NS(=O)(=O)c1ccc(N=Cc2c(C)[nH]n(-c3ccc(C)c(C)c3)c2=O)cc1	19%	3	-0.5	·	-0.5	-5	·	1.4
Cc1ccc(C(=O)N/N=C/C=C/c2ccccc2)cc1	-2%	-8	-2.9	6	1.0	-5	-1.5	-4.0
O=C(Cn1c(=O)c2cccn2c2ccc(F)cc21)N1CCN(c2ccc(F)cc2)CC1	·	-2	2.5	3	0.1	-34	0.6	0.0
O=C(Cn1cc2c(n1)CCCC2)N1CCOCC1	-4%	8	3.2	-6	0.5	-8	-3.3	1.5
O=C(COC(=O)CCC(=O)c1ccccc1)Nc1nnc(-c2ccccc2)o1	-4%	16	-1.5	-13	0.0	-3	-5.8	-1.2
O=C(CCc1nnc(Cc2ccc3c(c2)OCO3)o1)NC(c1ccccn1)C(F)(F)F (stereo not given)	10%	-24	1.0	6	-0.2	-7	-1.0	3.7
Cc1cc(C)nc(SCc2cn3ccccc3n2)n1	31%	0	-2.4	-1	-0.7	-20	2.0	-0.5
O=C(O)c1cc(S(=O)(=O)NC(CO)C(O)c2ccc([N+](=O)[O-])cc2)ccc1Br (stereo not given)	·	9	9.7	-4	-0.2	5	7.6	-1.0
CC(C)C(=O)Nc1cccc(NC(=S)NC(=O)c2ccccc2Cl)c1	-2%	21	0.0	4	0.0	-4	·	?
COC(=O)c1ccccc1CSc1nsc(C)c1C#N	-4%	-5	-3.4	3	1.5	-8	-2.4	0.7
CCOc1ccc(N2CC(C(=O)Nc3ccccn3)CC2=O)cc1 (stereo not given)	·	-13	-0.4	-5	-0.2	-6	-1.5	-0.7
Cc1c(C)c2ccc(OCC(=O)N3CC[C@@]4(O)CCCC[C@H]4C3)c(C)c2oc1=O	·	-6	0.6	0	1.7	6	-0.2	-6.9
Cc1ccc(C)c(CN2CCC(CNC(=O)Nc3cccc(Cl)c3C)CC2)c1	-3%	-26	-3.6	7	0.8	42	2.1	-4.4
O=C1c2ccccc2C(=O)N1CCCCSc1nnc2ccccn12	2%	8	4.0	3	1.5	-13	·	-1.6
COC(=O)c1sccc1NC(=O)CC1C(=O)NCCN1C(=O)Nc1ccc(F)cc1F (stereo not given)	21%	-2	2.3	-5	-0.1	3	-0.8	?
CC(C)c1ccc(-n2nc3ccc(N)cc3n2)cc1	-1%	18	-0.2	26	-4.7	21	-13	-0.7
Cn1c(SCC(=O)NC2CC2)nnc1C1CC1	·	2	-4.6	-4	-0.6	-11	1.6	?
CCc1ccc(OCC(=O)N2CC(C(N)=O)Oc3ccccc32)cc1 (stereo not given)	7%	-7	0.9	·	-0.9	-6	-2.4	1.3
CCCOC(=O)COC(=O)c1ccccc1NC(=O)c1ccccc1	1%	47	1.2	-2	0.3	-1	·	-1.7
Cn1c(C(=O)OC(C(=O)NC2CCCCC2)c2cccnc2)cc2sccc21 (stereo not given)	24%	10	-2.1	-1	0.1	39	·	-0.4
O=S(=O)(Nc1ncnc2c1oc1ccccc12)c1ccc(Cl)s1	·	-26	0.6	-1	0.3	-5	·	0.0
Cc1cc(N2C(=O)C(=O)/C(=C(/O)c3ccc(F)cc3)C2c2cccc(Br)c2)no1 (stereo not given)	-9%	23	-2.9	-3	-1.3	-3	·	4.9
COc1ccc(F)cc1S(=O)(=O)NCCN1CCOCC1	-7%	21	1.5	-4	-0.2	-5	-1.2	2.6
COC(=O)c1ccc(C(=O)OC)c(NC(=S)N2CC(C)CC(C)C2)c1 (stereo not given)	-11%	12	-2.2	-8	-0.1	9	·	?
CCN(CC)CCN(C(=O)c1cccc([N+](=O)[O-])c1)c1nc2ccc(OC)cc2s1	3%	7	11*	-9	0.1	56*	10	2.8
CN(C)c1ccc(NC(=O)CSc2nnc(C3CCCCC3)n2N)cc1	·	-44	-2.7	-5	-0.6	-1	5.4	?
CN(Cc1ccon1)C(=O)C1CCC(=O)N(Cc2ccc(Cl)cc2)C1 (stereo not given)	-5%	2	-2.4	2	1.6	1	-1.4	3.1

# (more compounds)
compound	Vif A3G	Calb FLC	LANA-H2A inh	Beta apoptosis	Bfl-1 A1 inh	T cruzi repl	AF4-AF9 inh	RanGTP-Impb inh
Cc1c(NC(=O)COc2ccccc2Cl)c(=O)n(-c2ccccc2)n1C	3%	·	1.3	1	0.0	·	0.6	·
CCc1nnc(NC(=O)CN2CCN(c3ccccc3F)CC2)s1	-2%	5	-1.7	-3	0.4	-12	2.2	2.0
NNC(=O)c1ccc(COc2ccc([N+](=O)[O-])cc2)o1	·	-1	1.5	-4	-0.6	-3	2.3	0.1
Cc1cccc(NC(=O)N2CCC(NC(=O)c3ccco3)CC2)c1	-6%	-4	-2.7	0	0.1	-3	-4.9	3.2
Nc1ccc(N2CCN(C(=O)c3cccs3)CC2)cc1	?	-18	-1.8	12	-0.2	·	·	2.8
CCCCOc1ccc(CSC(CC(=O)O)C(=O)O)cc1 (stereo not given)	13%	-5	1.7	3	-0.3	-2	·	0.8
CCOC(=O)c1[nH]c(C)c(/C(O)=C2\C(=O)C(=O)N(CCCn3ccnc3)C2c2ccncc2)c1C (stereo not given)	24%	-1	6.2	-1	0.7	·	·	0.2
COC(=O)C1=C(C(=O)OC)[C@@H]2N(C)c3ccccc3[C@@]23C[C@@H](C(=O)OC)N(C(=O)c2ccc(Br)cc2)C3=N1	·	15	-2.0	-17	0.6	-11	3.9	?
O=C(NCC(=O)N1CCCC1)c1ccc(Br)cc1	·	-6	-1.2	-7	0.6	-6	-3.2	?
Cc1c(CC(=O)NC(C)C)c(=O)oc2cc3c(cc12)CCC(C)(C)O3	-9%	-2	-3.8	-1	-1.0	-8	3.9	-1.0
CCCCc1ccccc1NC(=S)NC1CCCC1	·	-20	0.7	8	-0.5	8	3.8	2.2
CC(=O)c1cc(CC(=O)N2CCc3c([nH]c4ccccc34)C2c2ccccn2)cs1 (stereo not given)	-4%	57	8.0	3	0.4	-12	6.3	0.6
COc1ccc(-c2nn(C)c(=O)c3ccccc23)cc1CNC(=O)NC1CCCCC1	?	-20	0.0	16	-0.5	10	·	1.3
COC(=O)c1cccc(N2C(=O)C3CC=CCC3C2=O)c1 (stereo not given)	23%	1	0.5	2	1.4	-10	·	1.3
COc1ccc(C2=C(Nc3ccc(C)cc3)c3ccccc3C2=O)cc1	·	29	-5.6	8	-0.4	22	-2.9	-1.9
